Source: PubChem BioAssay (National Center for Advancing Translational Sciences (NCATS))
TRPML1 ag = qHTS for Agonists of the Human Mucolipin Transient Receptor Potential 1 (TRPML1); Mucolipin-1 (Homo sapiens), Q9GZU1; TRPML1-expressing cells, Ca2+ dye fluorescence, FDSS; host cell line not named in the record; reference of the full effect not given here; activation, % (test concentration not listed); 0.12% of 410,000 active; in the data active = activation above about 50%; inconclusive = about 30% to 50%; inactive = below about 30%; further: 0% is about no effect; the text of the record puts the active cut at 80%
Target sequence (Q9GZU1 whole entry, looked up): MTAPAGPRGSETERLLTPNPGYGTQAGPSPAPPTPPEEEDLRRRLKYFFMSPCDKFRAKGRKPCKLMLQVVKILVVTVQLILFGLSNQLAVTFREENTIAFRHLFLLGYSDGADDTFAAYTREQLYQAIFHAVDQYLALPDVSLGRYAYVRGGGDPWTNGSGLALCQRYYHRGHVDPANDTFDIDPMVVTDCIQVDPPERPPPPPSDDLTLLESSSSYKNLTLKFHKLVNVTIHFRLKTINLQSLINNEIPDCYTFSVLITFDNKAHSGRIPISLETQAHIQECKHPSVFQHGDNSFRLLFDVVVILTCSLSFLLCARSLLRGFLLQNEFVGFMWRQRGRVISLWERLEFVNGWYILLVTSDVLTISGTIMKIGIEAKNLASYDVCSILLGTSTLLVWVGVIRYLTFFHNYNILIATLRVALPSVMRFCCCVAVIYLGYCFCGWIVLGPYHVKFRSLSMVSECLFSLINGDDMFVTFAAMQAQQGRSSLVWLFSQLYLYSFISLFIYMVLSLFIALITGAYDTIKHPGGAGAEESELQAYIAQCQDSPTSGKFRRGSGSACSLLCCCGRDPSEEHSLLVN
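TRPML1-DL cells, Tet-induced overnight (~16 h, 37 degrees C), loaded 45-90 min at room temperature with Ca8 no-wash calcium dye plus quencher. FDSS fluorescence: 10 s baseline, compound pin-transfer, 110 s agonist read, then EC80 54-4 (4uM final) and 110 s antagonist read.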
Six1-Eya2 blk = qHTS Assay for Inhibitors of the Six1/Eya2 Interaction; AID 651725, 2012; Homeobox protein SIX1 (Homo sapiens) + Protein phosphatase EYA2 (Homo sapiens), …; 0.56% of 360,000 active; activity change, % (concentration not given with the values); AlphaScreen GST-Six1/His-Eya2 binding, biochemical; active compounds read low; control for the full effect not named in the record; in the data active = activity change below about -65%; inconclusive = about -30% to -65%; inactive = above about -30%; further: on the % scale 0 is the no-effect control and ±100 the full control effect
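AlphaScreen luminescence read after one hour at 37 °C in darkness. Pin-transferred compounds met GST-Six1 and His-Eya2 protein (5X stock 250 nM/500 nM) plus glutathione donor and Ni-chelate acceptor beads (5X, 50 ug/mL).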
D2 potentiator = Beta-Arrestin HTS for Positive Allosteric Modulators of the Human D2 Dopamine Receptor: Potentiators | DiscoveRx D2 beta-arrestin cells, luminescence, 90 min; 100% = 57 uM dopamine signal | potentiation, % (concentration not given with the values) | AID 624464, 2012 | 0.23% of 360,000 active; active = potentiation of 50% or more; inconclusive = 30% to 50%; inactive = 30% or less;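 further: compound concentration not given in the record; tested on top of an EC20 dose of dopamine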
Target sequence (P14416 whole entry, looked up): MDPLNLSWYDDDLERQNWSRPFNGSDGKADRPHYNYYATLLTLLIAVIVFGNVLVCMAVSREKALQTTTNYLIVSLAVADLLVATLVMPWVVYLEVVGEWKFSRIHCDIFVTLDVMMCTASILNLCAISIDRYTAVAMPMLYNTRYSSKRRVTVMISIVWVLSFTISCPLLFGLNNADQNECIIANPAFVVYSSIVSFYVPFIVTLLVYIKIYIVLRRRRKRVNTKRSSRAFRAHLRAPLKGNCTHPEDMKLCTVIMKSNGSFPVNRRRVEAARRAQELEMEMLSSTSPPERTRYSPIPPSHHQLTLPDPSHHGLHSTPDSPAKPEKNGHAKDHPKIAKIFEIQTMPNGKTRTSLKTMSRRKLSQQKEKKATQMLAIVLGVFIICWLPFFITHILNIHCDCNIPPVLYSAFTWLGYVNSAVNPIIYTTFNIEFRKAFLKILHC
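PathHunter beta-arrestin assay in DiscoveRx D2 cells. Compounds were added with an EC20 of dopamine (50 nM final) for 90 min at 37 deg C. Luminescence was read 1 h after detection reagent, with 57 uM dopamine as the EC100 control.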
TRPML1 blocker = qHTS for Inhibitors of the Human Mucolipin Transient Receptor Potential 1 (TRPML1); TRPML1-inducible cells, Ca2+ dye fluorescence, FDSS; active compounds read low; inhibition of EC80 agonist-evoked calcium signal; activity change, negative = inhibition, % (no concentration beside the values); AID 624415, 2012; Mucolipin-1 (Homo sapiens), Q9GZU1; 0.02% of 390,000 active; in the data active means activity change below about -50%; inconclusive means about -30% to -50%; inactive means above about -30%;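 further: stimulus is agonist 54-4 at its EC80 concentration; on the % scale 0 is the no-effect control and ±100 the full control effect; compound concentration not given in the record; the text of the record puts the active cut at -80%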
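Tet-induced TRPML1-DL cells loaded with Ca8 no-wash calcium dye were read kinetically on FDSS. Compound addition was followed by EC80 agonist 54-4 (4 uM final); inhibition was read over 110 s.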
PINK1 expr mod = A Quantitative High throughput Screen to Identify Chemical Modulators of PINK1 Expression. PINK1 immunofluorescence, high-content cytometry, 24 h. Potency, µM (series often up to 76.6 µM), for inactives: at the top dose activation (PINK1 increase), hits mostly activators. 0.2% of 410,000 active. AID 624263, 2012; active = well fitted activation curve with a large enough effect; inconclusive = small, poorly fitted or top-dose-only effect; inactive = flat fitted curve, though single readings scatter; cell line not stated here;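 further: potency means the concentration at half of the fitted maximal effect; % of control where 0% means no effect; nearly all actives have a fitted effect of over 65% in size; a mitochondrial uncoupler was the plate control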
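Cells are seeded, rested 12 hours, then given compound at five concentrations or DMSO for 24 hours. After fixation, blocking and antibody staining, PINK1 amount and mitochondrial localization are scored; CCCP serves as control.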
D2 ag = Beta-Arrestin HTS for Positive Allosteric Modulators of the Human D2 Dopamine Receptor: Agonists. DiscoveRx PathHunter D2 beta-arrestin, luminescence, 90 min; 100% = 57 uM dopamine signal. activation, % (concentration not given with the values). 0.084% of 360,000 active. AID 624465, 2012; in the data active = activation above about 40%; inconclusive = about 15% to 40%; inactive = below about 15%; further: compound concentration not given in the record; the text of the record calls up to 30% inactive
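DiscoveRx PathHunter D2 beta-arrestin cells (2,100/well) attached overnight, then compound-stimulated 90 min at 37 C in HBSS/10 mM HEPES/0.1% Tween-20 buffer; beta-galactosidase complementation read by luminescence after 1 h at ambient temperature. Dopamine 57 uM final (EC100) as control.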
Numbers without * were called inactive; u = inconclusive; x = no result given; [ ] = remark or other dose.

Compound	TRPML1 blocker	Six1-Eya2 blk	D2 potentiator	TRPML1 ag	PINK1 expr mod	D2 ag
O=C1CC(C(=O)Nc2ccccc2)N=C(N2CCOCC2)N1 (stereo unspecified)	4	0	-12	-0.4	-2.1%	-5.3
O=C(N1CCOCC1)N1CCN(S(=O)(=O)N2CCCCC2)CC1	16	9	4	-0.1	0.0%	-0.7
CC(=O)N1C[C@H]2CON(C)[C@H]2C[C@H]1c1cccc(N2CCOCC2)c1	20	-5	-4	0.2	1.0%	-8.7
CC1CCCCN1C(=O)N[C@@H](Cc1ccccc1)C(=O)O (stereo partly specified)	-2	6	-6	-0.5	6.6%[38.3 µM]	-2.2
Cc1ccc2c(c1)N(C(=O)NC1CCCCC1)C(C)(C)CC2C (stereo unspecified)	-6	0	0	0.4	14%[38.3 µM]	1.9
CC(=O)N1N=C(c2ccc(NS(C)(=O)=O)cc2)CC1c1ccc2nccnc2c1 (stereo unspecified)	-3	-2	1	-0.2	2.2%	1.4
Cc1cc(C(=O)NCCc2ccc(Cl)cc2)c2c(C)nn(-c3ccccc3)c2n1	-4	x	x	0.8	0.6%	x
COc1ccc(C(C(=O)NC2CCCC2)N(Cc2ccccc2)C(=O)c2nsc(Cl)c2Cl)cc1 (stereo unspecified)	21	-1	-18	1.7	5.7%[38.3 µM]	0.1
O=C(COC(=O)c1cc([N+](=O)[O-])ccc1N1CCOCC1)c1ccc(OC(F)F)cc1OC(F)F	-4	-3	-20	1.9	-2.7%	u
CCN(CC)S(=O)(=O)c1cccc(NN=c2c(=O)c3ccccc3c2=O)c1	1	-25	1	0.8	0.5%	-6.7
COc1ccc(CN2CCCC(C(=O)Nc3cccc(-n4cnnn4)c3)C2)c(C)c1C (stereo unspecified)	-7	-7	-33	-0.2	-1.0%	-0.4
O=C(CCN1CCOCC1)Nc1ccccc1	7	2	1	0.3	-2.8%	-0.2
O=C(C1=C[C@H](c2ccc3c(c2)OCO3)C[C@H](OCc2ccc(CO)cc2)O1)N1CCN(Cc2ccc3c(c2)OCO3)CC1	-16	-25	-17	0.5	-1.1%	-0.6
O=C(COc1cc2oc(=O)c3c(c2cc1Cl)CCC3)Nc1cccnc1	-3	-14	-16	-0.5	4.6%	-6.8
O=C(CSc1ncccn1)Nc1cccc2ccccc12	2	1	2	-0.8	1.1%	-0.6
COc1ccc(N(CC(=O)N/N=C/c2cc(Br)c(C)o2)S(=O)(=O)c2ccc(NC(C)=O)cc2)cc1	36	u	-11	0.5	9.8%	-2.3
O=C(Nc1cc(-c2ccccc2)nn1-c1ccccc1)c1ccccc1F	10	12	-6	3.0	2.9%	-0.9
O=C(COc1ccc([N+](=O)[O-])cc1)Nc1ccc(N2CCN(C(=O)c3ccco3)CC2)cc1	2	17	5	1.3	5.5%	-4.0
O=C(O)CSCC(=O)N1CCN(S(=O)(=O)c2cc(Cl)cc(Cl)c2)CC1	16	10	-7	-0.7	1.8%	-3.9
CCN(CC)C(=O)COc1cc(C)cc2oc(=O)cc(-c3ccccc3)c12	-8	0	5	-0.9	0.8%	0.5
Cc1nn(Cc2ccc(Cl)cc2Cl)c(C)c1NC(=O)c1ccc(COc2cc(Cl)ccc2Cl)o1	1	-7	-7	0.1	1.0%	-3.0
CC(C)OCCCNC(=O)CCc1nc(-c2ccccc2)no1	-2	2	16	-0.2	-1.6%	-2.7
CC(C)NC(=O)c1cnc2sc(N3CCCCCC3)nn2c1=O	8	x	x	-0.3	1.3%	x
CC(=O)N1c2ccc(S(=O)(=O)N3CCC(C(=O)NCc4ccc(C)cc4)CC3)cc2CC1C (stereo unspecified)	7	6	-8	-0.3	-1.4%	0.8
Cc1nn(C)cc1CN(C)C(=O)C1CCC(=O)N(CCc2cccc(F)c2)C1 (stereo unspecified)	7	-7	-7	-0.5	0.4%	-4.4
O=c1[nH]c(Cc2ccccn2)nc2scc(-c3ccc(Cl)cc3)c12	1	3	-9	0.4	15%	-1.5
Cc1ccc(C)c(CN2C(=O)C(C)Oc3ccc(C)cc32)c1 (stereo unspecified)	-2	-11	-6	-0.3	-0.8%[38.3 µM]	-2.5
Cc1ccc2c(c1)nnn2C1CCN(S(=O)(=O)c2ccc(C(=O)N3CC(C)CC(C)C3)cc2)CC1 (stereo unspecified)	5	-1	-7	-1.3	-0.7%	-3.4
CN(CCOc1ccccc1)C(=O)c1ccc(N2CCCC2)c([N+](=O)[O-])c1	13	-23	-9	-0.7	3.5%	-5.2
CCCNc1nc2c(c(=O)[nH]c(=O)n2C)n1CCC(C)C	12	0	3	4.5	-0.9%	-4.4
CN(Cc1ccc2nsnc2c1)C(=O)C1CCC(=O)N(CCc2ccccc2)C1 (stereo unspecified)	-8	5	-9	-0.2	-1.1%	-1.2
CCC(C)NS(=O)(=O)c1ccc(OCC(=O)NCc2ccc(OC)cc2)cc1 (stereo unspecified)	2	1	-10	0.1	0.2%	-0.7
COc1ccc(CC(=O)Nc2nc(-c3cc(OC)ccc3OC)cs2)cc1	6	-16	2	3.1	9.9%	-8.8
CC(=O)c1cccc(N(C(=O)c2cnccn2)C(C(=O)NCc2ccccc2)c2ccco2)c1 (stereo unspecified)	-16	0	-20	1.5	-3.6%	-2.5
Cc1cc(C(=O)NC2CCCc3c2cnn3-c2cc(F)cc(F)c2)nn1C (stereo unspecified)	20	6	-1	-0.1	1.5%	-1.1
Cc1c(/C=N/NC(=O)c2cc(=O)[nH]c(=O)[nH]2)c2ccccn2c1C(=O)c1ccccc1	-3	-20	4	-0.2	3.1%[38.3 µM]	-1.1
COc1ccc(C(=O)N/C(=C/c2ccco2)C(=O)NC2CCS(=O)(=O)C2)cc1 (stereo unspecified)	4	0	-4	-0.4	0.8%	-1.8
O=C(Cn1ccc2cc(S(=O)(=O)N3CCCCC3)ccc21)NCCc1ccccc1Cl	-8	x	x	0.7	-0.6%	x
COC(=O)C1CCN(C(=O)CN(C)Cc2ccc(C(C)(C)C)cc2)CC1	0	-2	-8	0.3	u	3.8
CC(C)Sc1n[nH]c(=O)n1-c1cccc(C(F)(F)F)c1	8	8	4	1.1	1.1%	-0.1

The final 4 records of the section before are carried over, then new ones follow.
Compound	TRPML1 blocker	Six1-Eya2 blk	D2 potentiator	TRPML1 ag	PINK1 expr mod	D2 ag
COc1ccc(C(=O)N/C(=C/c2ccco2)C(=O)NC2CCS(=O)(=O)C2)cc1 (stereo unspecified)	4	0	-4	-0.4	0.8%	-1.8
O=C(Cn1ccc2cc(S(=O)(=O)N3CCCCC3)ccc21)NCCc1ccccc1Cl	-8	x	x	0.7	-0.6%	x
COC(=O)C1CCN(C(=O)CN(C)Cc2ccc(C(C)(C)C)cc2)CC1	0	-2	-8	0.3	u	3.8
CC(C)Sc1n[nH]c(=O)n1-c1cccc(C(F)(F)F)c1	8	8	4	1.1	1.1%	-0.1
COc1ccc(N(C(C)C(=O)NN=C2CCCCCCC2)S(C)(=O)=O)cc1 (stereo unspecified)	0	7	-5	3.6	-1.6%	-4.4
OCC1(CO)COC2(CCCC2)N1	-15	6	-1	-0.2	4.5%[38.3 µM]	-3.2
COc1ccc(/C=N/n2c(N)c(S(=O)(=O)c3cccs3)c3nc4ccccc4nc32)cc1OC	2	u	-22	-0.1	x	-3.3
O=C(/C=C/N1CCOCC1)c1ccc(-c2ccccc2)cc1	-19	1	0	2.0	3.3%[38.3 µM]	1.2
CCn1nnc2cc(C(=O)Nc3ccc(Cl)cc3C)ccc21	1	x	x	0.6	3.9%	x
Cn1nc(C(=O)NC(C)(C)C)c2ccccc21	-14	10	-15	0.6	3.2%	1.1
CC1(C)NC(=O)N(CCC(=O)Nc2cc(C(F)(F)F)ccc2Cl)C1=O	-12	-2	-3	-0.3	-1.6%	-5.7
CCN1C(=O)C2(C(C(=O)c3ccc(C)o3)=C(O)C(=O)N2CCCN(C)C)c2ccccc21 (stereo unspecified)	-6	-3	-11	-0.1	1.3%	-2.5
CCCCn1c(N)c(N(CCOC)C(=O)c2oc3ccc(OC)cc3c2C)c(=O)[nH]c1=O	11	1	4	0.1	-2.5%	-3.3
O=C(NCC(F)(F)F)c1csc([C@@H]2O[C@H](CO)[C@H](O)[C@H](O)[C@H]2O)n1	x	3	-6	-0.3	1.3%	-4.0
C/C(=C/C(=O)N1CCN(C)CC1)C(=O)O	-9	8	13	-0.2	2.7%	0.3
O=c1c(/C=N/O)c(Nc2ccccc2)nc2ccccn12	21	-19	-15	0.6	-2.6%[38.3 µM]	-4.0
COCCN(Cc1cn(C)nc1-c1ccc(Oc2ccccc2)cc1)C(C)C	-4	8	0	-0.2	2.9%	0.7
CNC(=O)NC(=O)CSc1nc2cc(C(=O)OC)ccc2c(=O)n1-c1ccccc1	13	2	-9	-0.4	-1.9%[38.3 µM]	-2.0
COc1ccc(NS(=O)(=O)c2ccc(C(=O)N3CCCCCC3)cc2)cc1	28	9	-6	9.0	-3.0%	6.4
Cc1ccc2c(c1)c1c(c(=O)n(-c3cccc(Cl)c3)c(=O)n1CC(N)=O)n2C	1	x	x	0.6	3.0%	x
Cc1cc(C)nc(SC(C)C(=O)O)n1 (stereo unspecified)	-19	8	-3	1.7	-3.3%[38.3 µM]	2.6
COc1cccc(NC(=O)CN(C)C(=O)/C=C/c2ccc3ccccc3n2)c1	-6	-6	-2	2.4	10%	-1.5
Cc1cc(SCC(=O)c2ccccc2)nc(C)n1	29	3	-15	0.1	-1.0%	-1.9
CCOC(=O)C1CCCN(c2c(NCCN3CCCCC3C)c(=O)c2=O)C1 (stereo unspecified)	6	5	-1	-0.1	0.4%	-4.0
COc1ccc(CCNC(=O)c2ccc3c(c2)SC2=NS(=O)(=O)CCN23)cc1	-18	9	-1	-0.4	-0.1%	1.8
Cc1[nH]c2ccccc2c1C(=O)CSC(=S)N1CCN(C)CC1	9	-3	-23	0.4	1.9%	-3.7
CCN(CC)C(=O)[C@H]1C[C@H](CC(=O)NC/C=C(\C)CCC=C(C)C)C(=O)N2CCc3c([nH]c4cc(CCC(=O)N(C)C)ccc34)[C@]12C	16	-6	-9	-0.1	22%	-1.9
